Menin MLL FP FL: qHTS Assay for Inhibitors Targeting the Menin-MLL Interaction in MLL Related Leukemias: Competition With Fluorescein Labeled MLL-derived Peptide; Fluorescence polarization, fluorescein-MLL peptide displacement from menin; FP activity change, % at 61.4 µM; 290,000 tested, under 10 active; AID 1766, 2009; inconclusive = falling polarisation curve, or a change in total fluorescence; inactive = total fluorescence flat and polarisation flat or rising; no compound was filed as active; the % refers to the polarisation; negative = inhibition;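 also: % of control where 0% means no effect; inhibitors lower the polarisation; unlabelled MLL peptide was the positive control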
ClpP mod: qHTS Assay for Activators of ClpP; ATP-dependent Clp protease proteolytic subunit (Bacillus subtilis (strain 168)), P80244; purified B. subtilis ClpP, FRET peptide cleavage, 20 min; Potency, µM (doses to about 57.5 µM), for the others: top-dose activity change, negative = active; 340,000 compounds, 1.9% hits; AID 651965, 2013; active = well fitted falling curve with a large enough effect; inconclusive = small, poorly fitted or top-dose-only effect; inactive = no such curve, though single readings can be large or run the other way; also: potency is read from the fitted curve at half-maximal effect; the source files actives as falling curves though it sought activators and does not explain the sign; nearly all actives have a fitted effect of over 65% in size; many hits overshoot -100%
Target sequence (P80244 whole entry, looked up): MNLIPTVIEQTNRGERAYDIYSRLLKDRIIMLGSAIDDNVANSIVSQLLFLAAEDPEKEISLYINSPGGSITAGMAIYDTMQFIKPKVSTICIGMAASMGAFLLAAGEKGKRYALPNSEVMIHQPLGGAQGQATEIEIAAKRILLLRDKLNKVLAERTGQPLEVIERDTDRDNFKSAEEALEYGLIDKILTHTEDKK
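Buffer: 100 mM Tris/HCl pH8, 100 mM KCl, 0.05% low protease BSA, 2.5% glycerol, 0.01% Tween-20. ClpP 10 microg/mL final; 20 min RT; delta FRET normalized to ADEP and DMSO controls.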
D2 PAM: Beta-Arrestin HTS for Positive Allosteric Modulators of the Human D2 Dopamine Receptor: Potentiators. DiscoveRx D2 beta-arrestin cells, luminescence, 90 min; 100% = 57 uM dopamine signal. potentiation, % (test concentration not listed). 360,000 compounds, 0.23% hits; active = potentiation of 50% or more; inconclusive = 30% to 50%; inactive = 30% or less;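 also: compound concentration not given in the record; tested on top of an EC20 dose of dopamine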
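PathHunter D2 cells, attached overnight at 37 deg C, received compound in DMSO plus dopamine at EC20 (50 nM final) for 90 min at 37 deg C. Beta-arrestin recruitment was read as luminescence after 1 h with detection reagent at ambient temperature.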
TRPV1 potentiator: HTS Assay for Compounds that Act as Potentiators of the Vanilloid Receptor 1; Transient receptor potential cation channel subfamily V member 1 (Homo sapiens), Q8NER1; TRPV1-expressing cells, Fluo-8 calcium influx, capsaicin EC20 potentiation; host cell line not named in the record; control for the full effect not named in the record; potentiation, % at 8.33 µM; 320,000 compounds, 0.02% hits; active means potentiation above 80%; inconclusive means 30% to 80%; inactive means below 30%; also: 0% is about no effect
Target sequence (Q8NER1 whole entry, looked up): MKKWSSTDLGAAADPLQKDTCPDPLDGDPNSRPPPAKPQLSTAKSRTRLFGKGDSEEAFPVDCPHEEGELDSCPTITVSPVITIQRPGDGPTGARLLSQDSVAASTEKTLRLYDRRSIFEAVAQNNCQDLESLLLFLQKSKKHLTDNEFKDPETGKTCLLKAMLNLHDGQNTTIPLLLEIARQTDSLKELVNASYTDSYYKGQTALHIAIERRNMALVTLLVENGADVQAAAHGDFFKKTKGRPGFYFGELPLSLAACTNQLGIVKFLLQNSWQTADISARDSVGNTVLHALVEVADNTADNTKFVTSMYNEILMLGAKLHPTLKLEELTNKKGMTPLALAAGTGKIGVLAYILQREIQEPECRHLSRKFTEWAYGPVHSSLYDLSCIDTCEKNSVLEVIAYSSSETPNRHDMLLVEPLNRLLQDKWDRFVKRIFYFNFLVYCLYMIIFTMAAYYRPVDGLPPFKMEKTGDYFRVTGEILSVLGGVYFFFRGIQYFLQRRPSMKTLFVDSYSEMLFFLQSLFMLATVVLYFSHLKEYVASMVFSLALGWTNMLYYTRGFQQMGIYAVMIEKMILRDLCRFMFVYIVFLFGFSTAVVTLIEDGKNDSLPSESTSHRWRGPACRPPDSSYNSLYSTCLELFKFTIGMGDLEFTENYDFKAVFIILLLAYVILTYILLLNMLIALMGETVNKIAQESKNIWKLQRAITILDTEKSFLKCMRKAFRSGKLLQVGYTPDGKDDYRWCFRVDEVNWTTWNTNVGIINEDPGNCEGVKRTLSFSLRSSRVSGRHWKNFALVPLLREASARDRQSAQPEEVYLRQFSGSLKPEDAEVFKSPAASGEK
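Fluo-8 calcium influx in TRPV1-expressing cells, kinetic read (ex 480/em 520 nm). Compound added and read 3 min for agonist activity, followed by capsaicin at EC20 final and 2 min further read for enhancement.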
gsp agonist: qHTS for Agonist of gsp, the Etiologic Mutation Responsible for Fibrous Dysplasia/McCune-Albright Syndrome: qHTS; Potency, µM (top dose mostly 76.9 µM), for the others: top-dose activation (cAMP increase), most hits filed as activators; gsp mutant cells, cAMP HTRF, 30 min; control for the full effect not named in the record; AID 624287, 2012; 340,000 compounds, 0.13% hits; active = well fitted activation curve with a large enough effect; inconclusive = small, poorly fitted or top-dose-only effect, or another doubt; inactive = no such curve, though single readings can be large or run the other way; cell line not stated here;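 also: phosphodiesterase inhibitor Ro 20-1724 added with compounds to block cAMP breakdown; potency is read from the fitted curve at half-maximal effect; nearly all actives have a fitted effect of over 60% in size; about a fifth of the inactives were tested at one dose only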
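Cells in DMEM/10% FBS with G418 were pretreated with compounds in DMSO plus […] (300 uM stock) for 30 min at 37C. cAMP was measured by HTRF (cAMP-d2 plus anti-cAMP antibody-K) after 30 min at room temperature.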
gsp antag: qHTS for Antagonists of gsp, the Etiologic Mutation Responsible for Fibrous Dysplasia/McCune-Albright Syndrome: qHTS; 340,000 compounds, 0.4% hits; Potency, µM (series often up to 76.9 µM), without a hit: top-dose activity change, negative = inhibition, hits mostly inhibitors; gsp-mutant cells, cAMP HTRF, 30 min; control for the full effect not named in the record; active = falling curve of any shape with a large fitted effect; inconclusive = falling curve, mostly with a smaller effect; inactive = flat or rising curve; cell line not stated here;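 also: intracellular cAMP measured with PDE inhibitor Ro 20-1724 present during compound exposure; potency is read from the fitted curve at half-maximal effect; % is scaled to controls: 0 for no effect and ±100 for the full control effect; nearly all actives have a fitted effect of over 65% in size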
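Measurement of cellular cAMP by homogeneous time-resolved fluorescence following a 30 min compound exposure at 37C. The PDE inhibitor […] was present throughout; the assay buffer was DPBS with 0.05% BSA and 0.005% Tween 20.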
Sfp PPTase inh: qHTS Assay for Inhibitors of Bacillus subtilis Sfp phosphopantetheinyl transferase (PPTase); Biochemical Sfp PPTase activity, qHTS; 4'-phosphopantetheinyl transferase ffp (Bacillus subtilis), Q9F4F7; 310,000 compounds, 3.5% hits; Potency, µM, for the others: max response, negative = inhibition, hits mostly inhibitors; active = well fitted inhibition curve with a large enough effect; inconclusive = small, poorly fitted or top-dose-only effect, or another doubt; inactive = no such curve, though single readings can be large or run the other way;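 also: the enzyme is Sfp with the accession as filed and its product quenches rhodamine fluorescence; potency is read from the fitted curve at half-maximal effect; 0% = enzyme reaction without inhibitor and -100% = no enzyme wells; top concentration of the series not given in the record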
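Reaction rates are the 30-min fluorescence difference (ex 525, em 598 nm) in wells containing 15 nM Sfp, 5 uM rhodamine-CoA and 12.5 uM BHQ-2-YbbR at pH 7.6 with 10 mM MgCl2.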
An asterisk follows results filed as active; ? = inconclusive; . = no result given; [ ] = dose if it differs, or a comment.

The first 3 records (preview)
SMILES | Menin MLL FP FL | ClpP mod | D2 PAM | TRPV1 potentiator | gsp agonist | gsp antag | Sfp PPTase inh
O=C(CN1C(=O)CC(c2ccco2)Sc2ccccc21)NCc1ccc2c(c1)OCO2 (stereo not given) | -6.1 | -0.9% | 6 | 12 | -14% | -11% | ?
CSCCC1NC2(C(=O)Nc3c(C)cc(Cl)cc32)[C@@H]2C(=O)N(C3CCCC3)C(=O)[C@H]12 (stereo not given in full) | 4.2 | -1.1% | -9 | -5 | -3% | -9% | 7%
C=CCNC(=O)CSc1n[nH]c(-c2cc(Cl)ccc2OC)n1 | -1.2 | . | -3 | 4 | ? | -4% | 12%

Main list (from the top)
SMILES | Menin MLL FP FL | ClpP mod | D2 PAM | TRPV1 potentiator | gsp agonist | gsp antag | Sfp PPTase inh
O=C(CN1C(=O)CC(c2ccco2)Sc2ccccc21)NCc1ccc2c(c1)OCO2 (stereo not given) | -6.1 | -0.9% | 6 | 12 | -14% | -11% | ?
CSCCC1NC2(C(=O)Nc3c(C)cc(Cl)cc32)[C@@H]2C(=O)N(C3CCCC3)C(=O)[C@H]12 (stereo not given in full) | 4.2 | -1.1% | -9 | -5 | -3% | -9% | 7%
C=CCNC(=O)CSc1n[nH]c(-c2cc(Cl)ccc2OC)n1 | -1.2 | . | -3 | 4 | ? | -4% | 12%
Cc1c(Cl)cccc1NC(=S)N1CCC(C(N)=O)(N2CCCCC2)CC1 | 3.1 | . | -4 | -1 | -48%[inhibitor] | 5% | -1%
CCOc1ccc(-n2nc3c(=O)n(CCN4CCCCC4)nc(C)c3c2C)cc1 | -1.3 | 2.1% | -9 | -2 | -6%[15.4 µM] | 13% | 14%
O=C(OCC(=O)N1CCCC1)c1c(Cl)ccc(Cl)c1Cl | 0.5 | . | 0 | 6 | 22%[15.4 µM] | 1% | 10%
CCOc1ccc(CCNC(=O)c2ccc(C)c(N3CCCC3=O)c2)cc1OCC | 1.4 | 0.0% | -2 | 2 | -23% | 0% | 20%
CCCNC(=O)c1ccc(N(Cc2ccccc2)S(C)(=O)=O)cc1 | -0.5 | -0.9% | -10 | -7 | -1% | 5% | 31%[activator]
Nc1cc(-c2ccc(Br)cc2)[nH]n1 | 0.2 | 0.5% | 3 | 14 | -57%[inhibitor] | 1% | 4%
C=CCC(C=C)[N+]1(CC(=O)OC)CCCCC1 (stereo not given) | 1.5 | . | -3 | 1 | -26% | 8% | 17%
CCOc1ncccc1C(=O)Nc1ccc(OC)c(S(=O)(=O)N2CCCCC2)c1 | -1.8 | 0.9% | -6 | -2 | 0%[15.4 µM] | 14% | 8%
Cc1cccc(CSc2nncc(=O)[nH]2)c1 | -2.0 | -1.1% | 26 | 11 | -3% | -7% | 13%
Cc1cccc(NC(=S)N(c2ccccc2)C(C)C)c1C | 5.0 | 1.6% | -18 | -9 | 1% | -19% | ?
CNC(=S)N(C)/N=C1/C(=O)N(Cc2c(Cl)cccc2Cl)c2ccccc21 | . | 0.4% | 15 | 12 | 12% | -27% | .
C/C(=N\Nc1ccccc1)c1c(O)cc(C)oc1=O | 0.9 | . | -7 | -16 | -14% | -4% | -8%
CCOC(=O)c1ccc(N2C(=O)c3n[nH]c(C)c3C2c2ccco2)cc1 (stereo not given) | 2.5 | 1.2% | -16 | -6 | 37% | 0% | -7%
O=C(NNc1nccc(C(F)(F)F)n1)Nc1cccc(Cl)c1 | 7.4 | -1.1% | -2 | -6 | -8% | -1% | 13%
Cn1nc(CC(=O)Nc2cccc3ncccc23)c2ccccc2c1=O | -1.3 | -7.3% | -5 | 1 | ? | -34% | 3%
Nc1nc2c(C(=O)N3CCOCC3)nnn2c2ccccc12 | 3.8 | . | -2 | 4 | 16%[15.4 µM] | -1% | 0%
COc1cc(OC)cc(C(=O)NCCCN2CCOCC2)c1 | 2.9 | -6.6% | -20 | -20 | 26% | 2% | -11%
COc1ccnc(NCc2cccc(C(F)(F)F)c2)c1C#N | 3.7 | ? | 1 | 8 | 2% | 6% | 16%
CCOc1ccc(NC(=O)CCNC(=O)Cn2ccc3ccccc3c2=O)cc1 | -5.9 | 32µM* | -6 | 6 | 8%[15.4 µM] | -4% | 4%
O=C1c2ccccc2C(=Cc2cccnc2)c2ccccc21 | . | -1.7% | 11 | . | -12% | . | .
O=C(O)Cc1cc(=O)[nH]n(-c2ccccc2)c1=O | . | . | -2 | . | -18% | 8% | .
COc1ccc(F)c(CN2CCC(n3nccc3NC(=O)C3CCOC3)CC2)c1 (stereo not given) | -1.6 | 0.0% | -12 | -5 | -1%[15.4 µM] | 11% | 17%
C[C@H](NC(=O)N1CCC(Cc2ccccc2)CC1)C(=O)O | 10 | . | -13 | 6 | -1% | 12% | 14%
CC(OC(=O)CCN1C(=O)c2cccc([N+](=O)[O-])c2C1=O)C(=O)Nc1cc(Cl)cc(Cl)c1 (stereo not given) | 13 | ? | 30 | -23 | -17% | -24% | -12%
Cc1ccc(NC(=O)CN2C(=O)NC3(CCCc4ccccc43)C2=O)c([N+](=O)[O-])c1 (stereo not given) | . | 0.0% | 4 | 23 | -1% | 3% | -5%
Cc1cccc(Nc2nnc(SCC(=O)NCc3cccs3)s2)c1C | 8.0 | 1.0% | -22 | 3 | ? | -7% | 5%
CCc1ccccc1NC(=O)CSc1nnc(-c2cc(C)[nH]n2)n1N | . | 0.7% | -3 | 5 | -22% | -3% | 8%

Brought forward from above: two entries, then new ones.
SMILES | Menin MLL FP FL | ClpP mod | D2 PAM | TRPV1 potentiator | gsp agonist | gsp antag | Sfp PPTase inh
Cc1cccc(Nc2nnc(SCC(=O)NCc3cccs3)s2)c1C | 8.0 | 1.0% | -22 | 3 | ? | -7% | 5%
CCc1ccccc1NC(=O)CSc1nnc(-c2cc(C)[nH]n2)n1N | . | 0.7% | -3 | 5 | -22% | -3% | 8%
CCOC(=O)C1(CCc2ccccc2)CCN(C(=O)c2ccoc2)CC1 | 0.9 | . | -3 | -16 | 8%[15.4 µM] | -4% | 15%
COc1ccc(C(=O)CCC(=O)N2CCN(c3ccc([N+](=O)[O-])cc3)CC2)cc1 | -6.4 | 1.4% | -5 | -6 | 4% | 4% | -12%
CCCc1cc(=O)[nH]c(NCCc2ccccc2)n1 | -1.5 | -0.8% | -11 | -17 | -6%[15.4 µM] | 8% | 24%
Cc1ccc(C(=O)CC2C(=O)N(c3ccccc3)C(=S)N2c2ccccc2)cc1 (stereo not given) | 5.8 | 0.4% | -4 | -4 | ? | 10% | 5%
O=C(CCn1c(=O)c2sccc2n(CC(=O)OCc2ccccc2)c1=O)NCc1ccccc1 | -2.1 | 0.1% | -10 | ? | 2% | -3% | -22%
O=C(CN1CCN(Cc2ccccc2)C1=O)NCc1ccc(Cl)cc1 | 1.2 | 0.8% | -8 | -4 | -29% | 8% | 19%
Cc1cc(NC(=O)c2ccoc2C)no1 | 3.4 | -2.3% | -5 | 16 | -30%[inhibitor] | 1% | -27%
CCCN1C(=O)c2cc(C(=O)NCCc3cccc(C)c3)ccc2C1O (stereo not given) | 2.3 | -1.5% | 1 | 19 | -11% | 4% | 10%
CC1CCN(c2nc3nonc3nc2Nc2ccc(F)cc2)CC1 | 5.5 | . | -5 | -10 | 14%[15.4 µM] | -19% | -8%
N#CCc1nn(-c2ccc(F)cc2)c(N)c1C#N | 2.2 | -1.4% | -1 | 13 | 28% | 10% | 13%
COc1cc(C(=S)N2CCOCC2)cc(OC)c1O | 1.3 | . | 0 | 2 | 12%[15.4 µM] | 7% | ?
Cc1cccc(OCC(=O)Nc2ccccc2N2CCCCC2)c1C | . | 0.8% | -25 | -4 | 1% | -16% | .
CC(Sc1ccc2c(c1)OCCO2)C(=O)Nc1ccc2c(c1)OCO2 (stereo not given) | -9.1 | -1.4% | 5 | -12 | -10% | -19% | 8%
CC1CCCCC1NC(=O)CCn1c(=O)oc2ccccc21 (stereo not given) | 2.5 | 0.1% | -21 | -37 | -3% | 4% | 14%
CCn1c(=O)c(=O)[nH]c2cc(C(=O)NCc3ccc(F)cc3)ccc21 | 1.2 | . | -4 | 4 | 4% | -17% | 13%
COc1ccc(NC(=O)C2CCCN(c3nn4c(=O)cc(C)nc4s3)C2)cc1 (stereo not given) | 8.5 | -1.4% | -8 | 13 | 6% | -8% | -14%
CC(C)c1nnc(NC(=O)CCC(=O)N2CCN(c3cccc(Cl)c3)CC2)s1 | . | 0.2% | -18 | ? | -6% | -5% | 0%
O=C(NCCCN1CCCC1=O)C(=O)NCC1OCCN1S(=O)(=O)c1ccc(Br)cc1 (stereo not given) | . | ? | 4 | -12 | -41%[inhibitor] | 7% | -4%
COc1ccccc1NS(=O)(=O)c1cc(C(=O)N2CCN(C(=O)c3ccco3)CC2)ccc1F | . | 1.0% | 0 | . | 5% | ? | .
CNS(=O)(=O)c1cccc(C(=O)OCCCOC(=O)c2cccc(S(=O)(=O)NC)c2)c1 | . | 3.2% | -8 | 3 | -2% | -5% | 0%
CSc1cccc(NC(=O)/C=C/c2cccc(Cl)c2)c1 | 1.1 | -1.6% | -34 | -18 | -12% | ? | -26%
CN(C(=O)COC(=O)c1ccc(S(=O)(=O)N2CCOCC2)cc1)C1CCCCC1 | 3.4 | . | 2 | 6 | -2%[15.4 µM] | -1% | 10%
CC(C)(CC(=O)c1ccccc1)CC(=O)c1ccccc1 | . | 1.5% | -7 | . | 0% | -2% | .
CC(=O)N(C)c1ccc(NC(=O)N2CCOCC2)cc1 | -2.9 | 0.9% | -10 | -4 | 4%[15.4 µM] | 9% | 16%
CN(C(=O)c1ccc2c(c1)OCCO2)c1c(N)n(Cc2ccccc2)c(=O)[nH]c1=O | . | . | -3 | -1 | 0%[15.4 µM] | 2% | .

High-throughput results deposited in PubChem by National Center for Advancing Translational Sciences (NCATS).
